Source: PubChem (National Center for Advancing Translational Sciences (NCATS))
2A firefly: FMDV 2A StopGo reporter, firefly signal. HEK cells with a luciferase reporter of 2A StopGo recoding. actives 0.23% (n = 120,000). Potency, µM (top dose mostly 57.5 µM), without a hit: at the highest dose signal change, negative = less light; active = well fitted falling curve with a large enough effect; inconclusive = small, poorly fitted or top-dose-only effect; inactive = no such curve, though single readings can be large or run the other way; also: nearly all actives have a fitted effect of over 60% in size; overnight with compound
StopGo RLuc: FMDV 2A StopGo reporter, Renilla signal; Potency, µM (top dose mostly 57.5 µM), without a hit: top-dose signal change, negative = less light; HEK cells with a luciferase reporter of 2A StopGo recoding; actives 0.32% (n = 120,000); active means well fitted falling curve with a large enough effect; inconclusive means small, poorly fitted or top-dose-only effect; inactive means no such curve, though single readings can be large or run the other way; also: nearly all actives have a fitted effect of over 55% in size; overnight with compound
* = called active by the depositor; ? = inconclusive; & = joins results of further samples; [ ] = another dose, or the depositor's remark. % is scaled to controls: 0 for no effect and ±100 for the full control effect; potency is read from the fitted curve at half-maximal effect.

SMILES	2A firefly	StopGo RLuc
Cc1ccc(-c2nnn3c2nc(NCCc2ccc(Cl)cc2)c2ccccc23)cc1	104%[activator]	-4%
CCc1ccc(C(=O)c2sc(Nc3cccc(SC)c3)nc2N)cc1	31%[activator]	3%
Cc1cccc(-n2ncc(C(=O)NCc3ccccn3)c2C2CCN(C(=O)OC(C)(C)C)CC2)c1	-4%	32%[activator]
O=C(N[C@@H]1C[C@H]2CC[C@@H]1C2)c1c(Cl)cccc1Cl	-4%	14%
COc1ccc(Cl)cc1NC(=O)N1CCC(CN2CCCCCC2)CC1	40%[activator]	54%[activator]
Cc1ccccc1CNC(=O)c1cc2c(s1)CCCC2	0%	141%[activator]
COCCn1c(C(=O)NCc2cccnc2)nc2ccccc2c1=O	-11%	-16%
O=S(=O)(NCCO)c1ccc(Cl)c(Cl)c1	-7%	25%
CCOCCCn1c(SCC(=O)Nc2cccc(OC)c2)nc2ccccc2c1=O	?	-16%
CCOc1cc(C(=O)Nc2cccc3cccnc23)cc(OCC)c1OCC	-6%	-6%
COc1ccc(OC)c(-c2csc(-c3c(N)c(C(=O)c4ccc(Cl)cc4)n4ccccc34)n2)c1	-11%	-13%
O=C(Nc1ccccc1)c1nnc(CSCC(=O)N2CCN(c3cccc(Cl)c3)CC2)s1	-23%	?
COc1ccc2cc(C(=O)N3CCN(S(=O)(=O)c4ccc(C)cc4)CC3)c(C)nc2c1	-8%	-21%
Cc1nn(-c2ccc(Cl)nn2)c2c1C(c1coc3ccccc3c1=O)CC(=O)N2 (stereo not given)	-3%	23%
O=C(NC1CCCCCC1)c1cc(-c2cccc(Br)c2)nc2ccccc12	9%	14%
COc1cc(/C=C2/NC(=O)NC2=O)ccc1OCc1cccc(F)c1	27%	0%
CC(C)NC(=O)C1=CC(c2ccc3c(c2)OCO3)=NS(=O)(=O)N1C	-7%	-9%
CC(C)c1ccc(NC(=O)c2ccc(=O)n(Cc3ccccc3)c2)cc1	?	?
CCOc1ccc(CNCCc2ccccc2)cc1	12%	-2%
COc1ccc(Cl)cc1NC(=O)C1CC(=O)N(C2CCCCC2)C1 (stereo not given)	-13%	-7%
O=C(CN1CCN(c2ccc(C(F)(F)F)cn2)CC1)Nc1nc(-c2ccc(F)c(F)c2)cs1	21%	2%
CC(C)Oc1cccc(C(=O)Nc2cc(Cl)cc(Cl)c2)c1	129%[activator]	-19%
CC1CCN(C(=O)CSc2nc3cc(Cl)ccc3c(=O)n2Cc2ccccc2)CC1	4%	1%
COc1cc(CNC(=O)c2ccc3c(c2)c(C)c(C)n3Cc2cccc(C)c2)cc(OC)c1OC	-22%	-32%
Cn1c(SCC(=O)Nc2ccccc2)nnc1-c1ccccc1	31%[activator]	-10%
COc1cccc2cc(-c3ccc(OCC(=O)N4CCN(C)CC4)cc3)c(=O)oc12	150%[activator]	2%
O=C(Nc1ccccc1)N1CCC(N2CCN(Cc3ccccn3)C(=O)C2=O)CC1	77%[activator]	9%
CCC(CC)c1nn2c(=O)cc(COc3ccc(NC(=O)c4cccc(Cl)c4)cc3)nc2s1	-12%	-10%
CCOC(=O)c1c(C)n(CC(=O)O)c2ccc(OC)cc12	-8%	-10%
N#Cc1ccc(/C=C/c2ccc3c([N+](=O)[O-])cccc3n2)cc1	0%	11%
CCCCCn1nc(C(=O)NCC(=O)Nc2ccc(Br)cc2C)c2ccccc2c1=O	16%	14%
CSc1nc2ccc(NC(=O)Cc3cccc(C(F)(F)F)c3)cc2s1	6%	0%
COc1cccc([C@H]2[C@@H](C(=O)O)c3ccccc3C(=O)N2Cc2ccc(F)cc2)c1	-12%	-4%
COP(=O)(OC)c1nc(-c2ccco2)oc1NCc1ccc(C)cc1	3%	18%
CCCCOc1cccc(C2c3c(oc4ccccc4c3=O)C(=O)N2c2ccccn2)c1 (stereo not given)	0%	15%
CCC(=O)N1CCc2cc(CNS(=O)(=O)c3ccc(Cl)s3)ccc21	-1%	67%[activator]
Cc1cccc2c(=O)c(-c3ccccc3)c(NC(=O)C(C)C)oc12	6%	2%
CCOC(=O)c1noc2ncn(Cc3nc(-c4cccc(OC)c4OC)oc3C)c(=O)c12	2%	-6%
CCOC(=O)c1[nH]c(C)c(/C(Br)=C/Br)c1C	71%[activator]	2%
C=CCNc1nc2c(c(=O)[nH]c(=O)n2C)n1CCOc1ccccc1	0%	13%
O=C(c1ccccc1)N1CCN(CC2CC=CCC2)CC1 (stereo not given)	-1%	3%
O=C(CCc1ccccc1)Nc1cnc2ccccc2c1	256%[activator]	15%
N#Cc1ccc(COC(=O)c2cc3ccccc3[nH]2)cc1	33%[activator]	18%
CCOC(=O)c1cnc2c(OC)cccc2c1Nc1ccccc1C(=O)O	20%	14%
COC(=O)c1ccc(OC)c(CN2C(=O)N(c3ccc(C(C)=O)cc3)S(=O)(=O)c3ccccc32)c1	-18%	20%
Cc1ccc(/C=C/C(=O)c2cc3ccccc3oc2=O)cc1	34%[activator]	82%[activator]
CCOc1ccc(CNC(=O)c2ccc3c(c2)nc2n3CCOC2)cc1OC	-4%	-16%
Cc1nn(-c2ccc3nnc(C)n3n2)c(C)c1CCC(=O)Nc1ccc(OC(F)(F)F)cc1	10%	11%
O=C(CCc1ncc(-c2c(F)cccc2F)o1)NCC(=O)Nc1ccccc1Br	8%	-5%
CN1CCN(C(=O)C2CCCN(c3nc(Cl)nc4nc[nH]c34)C2)CC1 (stereo not given)	7%	-2%
COc1ccc(CCNC(=O)C(=O)Nc2ccc(C)c(C)c2)cc1OC	33%[activator]	-9%
CC(NC(=O)CSc1nnc(-c2ccccc2)o1)c1ccc2c(c1)CCCC2 (stereo not given)	43%[activator]	2%
O=C(CCc1ncc(-c2ccccc2)o1)N1CCCN(Cc2ccc(F)cc2)CC1	-3%	-6%
COc1cc(S(=O)(=O)N2CCCC2)c(OC)cc1Cl	-8%	2%
Cc1ccc2c(c1)c1c(c(=O)n(-c3ccccc3C)c(=O)n1Cc1cccc(F)c1)n2C	13%	3%
COCCCNC(=O)CS(=O)Cc1nc(-c2ccc(OC)c(OC)c2)oc1C (stereo not given)	-2%	-7%
O=C(CN1C(=O)CN=C(c2ccccc2)c2ccccc21)Nc1cccc(C(F)(F)F)c1	-12%	46%[activator]
CCN(CC(=O)NC(=O)NC)Cc1ccc(C#N)cc1F	2%	-5%
CN(CCNC(=O)NC1CCC(C(F)(F)F)CC1)Cc1ccccc1 (stereo not given)	-12%	-3%
CCc1ccccc1NC(=O)CN1C(=O)C2CCCN2c2ccc(S(=O)(=O)N(CC)CC)cc21 (stereo not given)	9%	4%

The list continues:
SMILES	2A firefly	StopGo RLuc
Cc1ccccc1-c1nc(SCC(=O)N(C)c2ccccc2)c2c(=O)n(C)c(=O)n(C)c2n1	-4%	0%
CC(Sc1nnc(-c2ccco2)n1-c1ccccc1)C(=O)NCc1ccc2c(c1)OCO2 (stereo not given)	-9%	-5%
COc1cc(C(CC(=O)NCCC(C)C)N2Cc3ccccc3C2=O)cc(OC)c1OC (stereo not given)	-14%	3%
CC(=O)c1ccc(S(=O)(=O)N2CCC3(CC2)NC(=O)c2ccccc2N3)cc1	-5%	-12%
Cc1ccc(C)c(N2CCN(C(=O)CCS(=O)(=O)c3ccc4c(c3)CC(=O)N4C)CC2)c1	-25%&5%	-27%&-19%
O=C(O)CCC(=O)N1N=C(c2ccc3c(c2)OCO3)CC1c1ccccc1 (stereo not given)	12%	-6%
O=C(CSc1nnnn1-c1cccc(F)c1)NCC1(N2CCOCC2)CCCCC1	-14%	-13%
CN(Cc1ccccc1)C(=O)COC(=O)c1ccccc1-c1nc2ccccc2s1	0%	189%[activator]
CCCCc1cc(=O)oc2cc(C)c3c(C)coc3c12	-14%	-14%
O=C(CN1CCN(CC(=O)NC2CCCCC2)CC1)Nc1ccc(Cl)c(C(F)(F)F)c1	-20%	-22%
Cc1ccc(Cl)cc1N1CCN(C(=O)CCNS(=O)(=O)c2ccc3[nH]c(=O)ccc3c2)CC1	?	?
CCN(CC)S(=O)(=O)c1ccc(Cl)c2ccccc12	0%	41%[activator]
Cc1ccc2nc(NC3=NC(CC(=O)O)C(=O)N3)nc(C)c2c1 (stereo not given)	-1%	1%
O=C(Cn1c(=O)c2cccn2c2cccnc21)NCc1ccccc1F	-1%	-3%
NC(N)=NC(=O)c1nc(Cl)c(N)nc1N	-7%[11.5 µM]	-6%
Cc1ccc(NC(=O)NCc2nc(-c3cccc(Cl)c3)oc2C)cc1	0%	2%
CCOC(=O)C(=O)Nc1ccc(N(C)C(C)=O)cc1	7%	7%
Cc1cccc(N2CCN(C(=O)c3noc4c3CCc3sccc3-4)CC2)c1C	11%	3%
CCOCCCNC(=O)NC(CCC(C)C)c1c(-n2cccc2)sc2c1CCN(C)C2 (stereo not given)	7%	2%
CCOC(=O)c1cccc(NC(=O)CCCn2c(C)c3cnn(-c4ccccc4)c(=O)c3c2C)c1	-5%	-20%
CCCC[N+]1(C)[C@@H]2CC(OC(=O)[C@H](CO)c3ccccc3)C[C@H]1[C@@H]1O[C@@H]12 (stereo not given in full)	-9%[11.5 µM]	-9%
Cc1ccc2oc(C(=O)Nc3cccc(Cl)c3)cc(=O)c2c1	-6%	-10%
Cc1cccc2c(=O)c(-c3ccc(Cl)cc3)c(NC(=O)c3ccco3)oc12	8%	27%
Cc1ccccc1NC(=O)Cc1nnc(SCC(=O)NC23CC4CC(CC(C4)C2)C3)n1C	-16%	-9%
CN(C1CCCCC1)S(=O)(=O)c1ccc(C(=O)Nc2ccc(Cl)c3ncsc23)cc1	11%	2%
Cc1ccc(-c2noc(CNc3ccc(Cl)c(Cl)c3)n2)cc1	23%	-1%
COC(=O)c1cccc(NC(=O)c2sc(COc3cccc(C)c3)nc2C)c1	71%[activator]	-8%
Cc1cccc(C(=O)N2CCCC(c3nc4ccccc4[nH]3)C2)c1 (stereo not given)	17%	7%
Cc1ccccc1-c1nc(CN2CCCC(C(=O)NCc3ccc(Cl)cc3)C2)c(C)o1 (stereo not given)	-4%	-10%
CCOc1ccc(OCC)c(S(=O)(=O)Nc2ccc(-c3cn4ccc(C)nc4n3)cc2)c1	-8%	0%
COC(=O)c1cccc(NC(=O)CN(C)Cc2nc3ccccc3c(=O)[nH]2)c1	7%	3%
Cc1nc(C(C)(C)C)nc2sc(C(=O)N3CCOCC3)c(C)c12	57%[activator]	22%
COc1cc(C2c3c(-c4ccccc4O)n[nH]c3C(=O)N2Cc2ccncc2)ccc1O (stereo not given)	35%[activator]	105%[activator]
Cc1ccc(Nc2nc3c(S(=O)(=O)c4ccccc4)nnn3c3ccsc23)c(C)c1	-6%	22%
CN(C(=O)CCC1CCCCC1)C1(c2ccccc2Cl)CCCCC1=O (stereo not given)	-4%	-7%
O=C(Nc1cccc2c(=O)cc(-c3nn[nH]n3)oc12)c1ccc(OCCCCc2ccccc2)cc1	5%[11.5 µM]	-6%
COc1ccc(C(=O)NCCn2cc(SCc3cc(C)ccc3C)c3ccccc32)cc1	?	?
COc1ccccc1-c1cc(=O)c2cc(NS(=O)(=O)c3ccc(Cl)cc3)ccc2o1	0%	189%[activator]
Cc1ccnc(NS(=O)(=O)c2cc(-c3cc(C)no3)ccc2C)c1	-4%	1%
CCCOc1cccc(C(=O)Nc2scc(-c3ccc(F)cc3)c2C(=O)OC)c1	-8%	-11%
COc1ccc(C(=O)COC(=O)CCC(=O)c2ccc(Cl)cc2)cc1Br	-4%	3%
N#Cc1ccc(CNCc2cc(Br)cs2)cc1	0%	42%[activator]
CCC(=O)Nc1ccc(-c2csc(Nc3cccc(OC)c3)n2)cc1	125%[activator]	-1%
CC(C)OCC(O)Cn1c(N2CCCCCC2)nc2c1c(=O)[nH]c(=O)n2C (stereo not given)	3%	0%
CCOc1ccc(NC(=O)c2cnn3c2NC(c2ccc(OC)cc2)=CC3c2ccccc2)cc1 (stereo not given)	-11%	-11%
CCCn1c(Cn2ccnc2C)nc2cc(NC(=O)c3ccccc3OC)ccc21	0%	45%[activator]
CN(C)CCOC(=O)Cc1ccccc1	3%	-8%
COCCn1c(-n2nc(C)cc2C)nc2c1c(=O)n(C)c(=O)n2C	0%	16%
CCOc1ccc(Nc2oc(-c3ccc(COc4ccc(C)cc4)o3)nc2C#N)cc1	23%	-14%

Filtered by structure, those above containing an aryl thioether with sulfur outside any ring
SMILES	2A firefly	StopGo RLuc
CCc1ccc(C(=O)c2sc(Nc3cccc(SC)c3)nc2N)cc1	31%[activator]	3%
CCOCCCn1c(SCC(=O)Nc2cccc(OC)c2)nc2ccccc2c1=O	?	-16%
CC1CCN(C(=O)CSc2nc3cc(Cl)ccc3c(=O)n2Cc2ccccc2)CC1	4%	1%
Cn1c(SCC(=O)Nc2ccccc2)nnc1-c1ccccc1	31%[activator]	-10%
CSc1nc2ccc(NC(=O)Cc3cccc(C(F)(F)F)c3)cc2s1	6%	0%
CC(NC(=O)CSc1nnc(-c2ccccc2)o1)c1ccc2c(c1)CCCC2 (stereo not given)	43%[activator]	2%
Cc1ccccc1-c1nc(SCC(=O)N(C)c2ccccc2)c2c(=O)n(C)c(=O)n(C)c2n1	-4%	0%
CC(Sc1nnc(-c2ccco2)n1-c1ccccc1)C(=O)NCc1ccc2c(c1)OCO2 (stereo not given)	-9%	-5%
O=C(CSc1nnnn1-c1cccc(F)c1)NCC1(N2CCOCC2)CCCCC1	-14%	-13%
Cc1ccccc1NC(=O)Cc1nnc(SCC(=O)NC23CC4CC(CC(C4)C2)C3)n1C	-16%	-9%
COc1ccc(C(=O)NCCn2cc(SCc3cc(C)ccc3C)c3ccccc32)cc1	?	?

A portion of the library, so the mix of outcomes need not match the whole.
